Source: PubChem
HIV Env fusion: blocks HIV Env-driven cell-cell fusion; HeLa-JRFL Env/CEM21 cell fusion, luciferase; inhibition, % at 12.3 µM; 360,000 tested, 1.1% active; AID 651610;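 active means mean replicate inhibition score of at least 50 and every replicate individually at or above 50; inconclusive means only one of the two criteria met; inactive means mean below 50 and not all replicates reaching 50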;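 further: 0% = plate neutral controls and 100% = maraviroc near 300 nM; one replicate is shown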
eIF4H FP inh: inhibitors of RNA binding by human eIF4H; Q15056; eIF4H fluorescence polarization binding assay; inhibition, % at 35 µM; 290,000 tested, 0.94% active;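 active means 50% or more with normal probe brightness, or confirmed in later tests; inconclusive means above 50% with abnormal brightness, or retests that disagree; inactive means below 50% or failed in later tests; about a fifth of its hits are not listed in these tables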;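 further: calls also rest on retests at 20 µM and on dose response follow-up; 0% = protein and probe with vehicle and 100% = probe without protein; strong numbers were not always called active; many hits fall short of the cut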
CSC inhib: blocks cancer stem cells | cancer stem cell-like cells viability, luminescence | inhibition, % at 7.5 µM | 300,000 tested, 1.1% active | AID 2717;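 active means mean at 75% or more and at least half the replicates too; inconclusive means mean and replicates disagree; tested in HMLE shEcad cells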;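 further: 0% = median of negative and 100% = median of positive control wells; the first replicate is given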
Rce1 inh: inhibitors of yeast Ras-converting enzyme. 290,000 tested, 0.27% active. calls only. yeast membranes, quenched prenylated peptide cleavage fluorescence. AID 2563;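 active means fall in fluorescence gain of 50% or more versus controls, with final raw signal at or below 3038400; inconclusive means same 50% fall but final raw signal above 3038400; inactive means fall in fluorescence gain under 50%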;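 further: plate controls were neutral control wells for no effect and wells lacking membranes for full effect; tested at 10 µM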
PABP polyA inh: blocks human PABP binding to poly(A) RNA | P11940 | fluorescence polarization | inhibition, % at 35 µM | 290,000 tested, 1% active | AID 2014;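 active means 50% or more with normal probe brightness, or confirmed in later tests; inconclusive means above 50% with abnormal brightness, or retests that disagree; inactive means below 50% or failed in later tests; about a fifth of its hits are not listed in these tables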;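 further: calls also rest on retests at 20 µM and on dose response follow-up; controls were probe without protein and protein plus probe with vehicle; some compounds called inactive have numbers as strong as hits; many hits fall short of the cut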
Target sequence (P11940 whole entry, looked up): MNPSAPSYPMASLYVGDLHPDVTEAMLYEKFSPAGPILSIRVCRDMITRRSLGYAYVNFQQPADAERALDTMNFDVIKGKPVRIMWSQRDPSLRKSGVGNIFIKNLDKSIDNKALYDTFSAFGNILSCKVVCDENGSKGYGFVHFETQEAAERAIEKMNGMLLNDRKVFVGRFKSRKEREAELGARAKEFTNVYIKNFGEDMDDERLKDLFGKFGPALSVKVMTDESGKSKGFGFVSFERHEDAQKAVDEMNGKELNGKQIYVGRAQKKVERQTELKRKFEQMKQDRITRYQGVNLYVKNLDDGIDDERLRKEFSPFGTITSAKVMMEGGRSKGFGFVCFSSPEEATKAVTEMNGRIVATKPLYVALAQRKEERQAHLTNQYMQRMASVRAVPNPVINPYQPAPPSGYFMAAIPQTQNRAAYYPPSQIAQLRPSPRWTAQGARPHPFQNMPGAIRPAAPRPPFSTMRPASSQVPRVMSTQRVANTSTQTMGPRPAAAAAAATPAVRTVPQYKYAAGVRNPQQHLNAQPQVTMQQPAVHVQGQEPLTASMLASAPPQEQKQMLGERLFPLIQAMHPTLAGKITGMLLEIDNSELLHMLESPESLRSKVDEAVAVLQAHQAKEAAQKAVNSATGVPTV
MT1-MMP act inh: inhibitors of human MT1-MMP activation | GFP/RFP ratio change, % at 20 µM | 360,000 tested, 0.061% active | HT1080 RFP-PRO-GFP cells, GFP/RFP ratio fluorescence, overnight; percent of plate control window, DMSO zero;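 active means GFP/RFP ratio change of at least 30% with cell ATP level not reduced by more than half and red fluorescence within 50% of control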; further: strong numbers were not always called active
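Assay system: HT1080 RFP-PRO-GFP cells | Dosing: 20 µM single dose, 1% DMSO | Incubation: Cells overnight before dosing, compound overnight, 37 °C, 5% CO2 | Evaluation: GFP/RFP fluorescence ratio | Control set: DMSO-only wells and HT1080 RFP-L50D-GFP cell wells as references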
Yeast UUG start: alters start codon recognition fidelity in yeast; S. cerevisiae UUG-firefly luciferase reporter, luminescence/redox ratio; activity score, % at 18.7 µM; 350,000 tested, 0.13% active;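 active means replicate mean at a twofold rise or more, about +100% in these data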;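 further: firefly luciferase made from a UUG start codon reports start codon fidelity; reporter light over untreated wells divided by growth signal over untreated wells; some hits fall short of that in this replicate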
eIF4H FP inh retest: further read-out of eIF4H FP inh, marked with its call; inhibition, %; compound at 20 µM; confirmation average;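 mean of two retest wells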
PABP polyA inh retest: second read-out of PABP polyA inh, no call of its own (marks repeat the call); inhibition, %; compound at 20 µM; confirmation repeats;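 mean of two retest wells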
MT1-MMP act inh RFP: further read-out of MT1-MMP act inh, marked with its call; RFP signal change, %; measured here: RFP expression control read;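 0 = vehicle wells; hits needed this value within 50% of zero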
* = called active by the depositor; i = inactive; u = inconclusive; x = no result given; & = joins results of further samples. An excerpt; count on the stated rates, not on these rows.

SMILES | HIV Env fusion | eIF4H FP inh | CSC inhib | Rce1 inh | PABP polyA inh | MT1-MMP act inh | MT1-MMP act inh RFP | Yeast UUG start | others
COc1ccccc1NC(=O)/C(C#N)=C/C=C/c1ccco1 | -133.0 | u | -2.0 | x | u | -14.2 | -8.0 | 0.7
CNC(=S)N/N=C/c1ccc(-c2cc([N+](=O)[O-])ccc2Cl)o1 | -40.5 | 4.1 | 9.2 | i | 2.1 | 4.3 | -2.5 | x
COc1ccc(C(=O)NCC(=O)OCC(=O)c2c[nH]c3ccccc23)cc1 | -19.0 | x | x | x | x | 1.0 | 4.0 | -10.2
O=C(CCc1nc(-c2ccc(Cl)cc2)no1)OCc1ccc(Br)cc1 | x | x | 26.0 | i | x | -2.0 | 3.2 | -4.8
Nc1nc(CSCCO)nc(Nc2ccccc2)n1 | x | -2.6 | 0.3 | i | 1.4 | 10.4 | 1.6 | -22.0
COc1ccc(O)c(C(=O)c2cnn(-c3ccccc3)c2)c1 | -6.0 | -5.1 | 25.9 | i | 1.0 | -1.9 | -0.1 | -12.2
CC1CCCCC1NC1=NCCS1 (configuration not stated) | -19.4 | 0.4 | 5.6 | i | -7.9 | -0.7 | 2.0 | -25.4
Cc1cc(C)c(C)c(S(=O)(=O)N2CCNC(=O)C2)c1C | -4.7 | x | x | x | x | -1.2 | -0.2 | -19.4
CC[C@]12c3[nH]c4cc(-c5ccco5)ccc4c3CCN1C(=O)[C@@H](CC(=O)NCC13CC4CC(CC(C4)C1)C3)C[C@@H]2C(=O)N1CCN(C(=O)c2ccco2)CC1 | 21.1 | x | x | x | x | -2.8 | 0.6 | -17.2
CCOCCCNC(=O)C1CCCN(S(=O)(=O)CC)C1 (configuration not stated) | x | -2.7 | -4.5 | i | -2.0 | -1.5 | 2.9 | -18.0
CSc1nnc(-c2sccc2OCc2ccccc2)n1C | -38.0 | 4.7 | -2.7 | i | -5.1 | 1.2 | 1.7 | -20.2
N/C(=N\c1nc2ccccc2o1)NC(=O)c1ccccc1NC(=O)c1ccccc1 | 35.2 | -11.3 | -2.8 | x | 2.9 | -3.1 | -0.6 | -10.5
COc1ccccc1C(=O)N/C(=C\c1ccc(Br)cc1)C(=O)N1CCCC1 | 6.0 | 0.2 | -3.5 | i | -9.6 | -3.5 | -3.8 | 6.1
CO/N=C\C(=N\Nc1ccc(OC)cc1)C(=O)c1ccccc1 | x | 1.6 | 59.9 | i | -16.8 | -5.5 | -4.5 | -19.7
COc1ccc(-c2[nH][nH]c(=O)c2NC(=O)c2ccc([N+](=O)[O-])cc2)cc1 | -1.2 | x | x | x | x | -0.5 | 4.4 | -19.9
CC1(c2nnc(-c3ccccc3)o2)CC(c2ccncc2)=NO1 (configuration not stated) | -19.4 | -6.1 | 5.8 | i | -1.8 | 1.8 | -2.2 | -5.3
COc1ccc(/C=C2\CCC(C3CCCC3)C2=O)c(OC)c1OC (configuration not stated) | 0.5 | -2.0 | 16.5 | i | 9.6 | 1.2 | -6.5 | 10.2
O=C(O)CN1C(c2ccccc2O)Nc2ccc(Br)cc2C1c1ccccc1 (configuration not stated) | 5.2 | 8.8 | x | i | -2.9 | 2.6 | -0.1 | x
CCOc1ccc(CSC(=N)N)cc1Cl | 10.0 | -3.3 | 10.4 | i | 2.0 | -2.8 | -1.3 | 12.9
COc1ccc(C(=O)Nc2cccc(-c3cc4ccccc4oc3=O)c2)cc1[N+](=O)[O-] | 16.4 | -9.9 | -5.9 | x | -2.0 | -2.2 | -2.5 | x
CC(C)(C)n1nc2c(c1NC(=O)c1ccccc1C(F)(F)F)CS(=O)(=O)C2 | 15.3 | -1.5 | -9.0 | i | -3.1 | -6.9 | -0.7 | -19.2
CCc1nc2ccc(C(=O)NC(C)(C)C)cn2c1N(CC)Cc1cccc(Br)c1 | 8.2 | x | x | x | x | -3.1 | -2.6 | 0.9
COc1ccc(CC(=O)N/N=C(\C)c2ccccn2)cc1 | x | 7.3 | 25.5 | i | 4.9 | 4.8 | -3.7 | x
COc1c(O)ccc(/C=C(\C#N)c2nc3ccccc3[nH]2)c1[N+](=O)[O-] | -5.8 | u | 5.3 | i | -1.8 | 2.6 | 2.7 | -8.5
O=C(NCCc1cccs1)C1CC1 | 1.4 | 0.2 | 8.2 | i | 8.5 | 0.2 | 1.1 | x
More entries
SMILES | HIV Env fusion | eIF4H FP inh | CSC inhib | Rce1 inh | PABP polyA inh | MT1-MMP act inh | MT1-MMP act inh RFP | Yeast UUG start | others
COc1ccc(NS(=O)(=O)c2ccc(Cl)s2)cn1 | 5.9 | u | -4.4 | i | u | -11.7 | 0.3 | x
O=C(COC(=O)CNS(=O)(=O)c1cccc(Br)c1)NC(=O)Nc1ccc2c(c1)OCCO2 | -1.9 | 6.7 | -10.7 | x | 5.9 | 2.9 | 2.4 | x
COc1ccc(Cn2c(C)nc3c(c(=O)c4ccccc4n3C)c2=O)cc1 | -0.4 | 4.6 | -2.2 | i | 3.3 | 0.2 | -0.7 | x
CC(=O)c1c(C)oc2c1cc(O)c1ccccc12 | 21.5 | -7.0 | 1.3 | i | -13.9 | 1.6 | 4.5 | x
Cc1cc(OC(=O)Nc2ccccc2)ccc1Cl | -5.8 | x | x | x | x | -10.5 | -2.4 | -7.4
Cc1cccc(C(=O)Nc2cc(OCc3cccc(F)c3)c(Cl)cc2Cl)c1 | -50.4 | -5.3 | 0.2 | i | 4.0 | -4.1 | -1.2 | -5.4
CC1(C)Oc2ccc3ccc(=O)oc3c2/C(=C/Nc2ccc(O)cc2)C1=O | 13.9 | 6.9 | -1.1 | i | 13.3 | 1.1 | -5.5 | -8.9
CCOCC(O)CNc1ccccc1 (configuration not stated) | 10.0 | 10.9 | -0.3 | i | 3.4 | 2.1 | 3.3 | -1.5
CCN(C(=O)COC(=O)c1cc(-c2ccccc2)nn1-c1ccccc1)C1CCS(=O)(=O)C1 (configuration not stated) | 5.1 | -5.3 | -16.2 | i | -10.9 | -4.9 | -2.8 | -24.7
O=C(NC1CCCC1)C(c1ccncc1)N(Cc1ccco1)C(=O)c1ccc(-c2ccccc2)[nH]1 (configuration not stated) | -46.5 | -2.2 | 17.7 | i | -17.0 | -13.2 | -10.5 | x
C[C@@]12CCC=C[C@H]1[C@H](c1ccc3ccccc3c1/C=C/c1ccccc1)N(Cc1ccccc1)C2=O | u | -6.6 | 65.5 | i | -1.3 | -4.3 | -13.1 | -24.5
C=CC[C@@H](CC(=O)N[C@H](CO)Cc1ccccc1)C(=O)N[C@H](COC(=O)[C@@H](CC=C)CC(=O)OC(C)(C)C)Cc1c[nH]c2ccccc12 | -135.5 | x | 28.4 | x | x | 5.4 | -6.6 | -7.8
COc1ccc(NC(=O)c2cc3c(s2)CCC3)cc1S(=O)(=O)N1CCOCC1 | 45.6 | 100.2* | 20.5 | i | 27.3 | -1.5 | -5.8 | -12.9 | eIF4H FP inh retest=71.4*;PABP polyA inh retest=10.6
Cc1ccc(C2C3C(=O)N(c4ccc(C)cc4)C(=O)C3N3CCCN23)cc1 (configuration not stated) | 3.3 | 2.4 | 2.1 | i | 6.8 | 1.1 | 4.3 | x
C=CCOC(=O)C1=C[C@H](c2ccccc2)[C@@H](CCCO)[C@H](OCC)O1 | 22.0 | -9.8 | 8.1 | i | -1.1 | -1.6 | 1.4 | -16.0
CSc1ccccc1NC(=O)CN(C)CC(=O)c1[nH]c(C)c(C(C)=O)c1C | 0.2 | x | 1.5 | x | x | -2.5 | -7.1 | -8.9
CCOC(=O)C1CCN(C(=O)Cc2c(C(=O)O)n(C)c3ccccc23)CC1 | x | -4.6 | -5.9 | i | 16.6 | 6.7 | 9.0 | -2.4
O=c1[nH]c2ccccc2n1C1=CCNCC1 | -4.7 | 7.2 | x | i | 6.5 | 2.1 | -2.1 | -1.2
CC(=O)NCC(=O)OCC(=O)N1c2ccccc2Sc2ccccc21 | 3.1 | 6.8 | -12.0 | i | 5.6 | 2.7 | 1.1 | -9.1
CC(=O)Nc1ccc(S(=O)(=O)NC2=C(N3CCN(Cc4ccccc4)CC3)C(=O)c3ccccc3C2=O)cc1 | 31.8&19.5 | 4.0 | 14.9 | i | 22.5 | 9.6&10.0 | 6.4&0.9 | 1.2
O=C(Cc1cccs1)NCCc1ccc(Cl)cc1 | -8.7 | 1.8 | -8.9 | i | 17.9 | -3.0 | -1.2 | -3.9
COc1cc(/C=C/c2cccc[n+]2C)ccc1OCC(=O)Nc1ccccc1C | 12.1 | x | -0.3 | i | x | -3.3 | 0.3 | 12.8
COc1ccc2[nH]c(=O)c(CN(Cc3nnnn3CCc3ccccc3)CC3CCCO3)cc2c1 (configuration not stated) | x | 7.9 | 2.0 | i | 33.5 | -0.7 | 1.2 | -7.8
Cn1nnnc1Sc1ncnc2scc(-c3ccc(-c4ccccc4)cc3)c12 | -79.1 | x | x | x | x | -9.9 | -7.7 | -19.8
Cc1onc(-c2ccccc2)c1C(=O)OCC(=O)NCc1ccc(F)cc1 | -7.6 | -7.3 | -6.9 | i | 5.1 | 15.2 | -7.3 | -11.7
(cont.)
SMILES | HIV Env fusion | eIF4H FP inh | CSC inhib | Rce1 inh | PABP polyA inh | MT1-MMP act inh | MT1-MMP act inh RFP | Yeast UUG start | others
O=S(=O)(Nc1ccccn1)c1ccc(C2CCCCC2)cc1 | -55.6 | -1.6 | -11.2 | i | 9.5 | 10.2 | -9.1 | -12.8
C/C(=N\Nc1ccc2nncn2n1)c1ccccn1 | -71.1 | 12.9 | 98.5* | i | 10.2 | 8.4 | 0.8 | 39.0
O=C(CSc1nnc(Cn2nnc3ccccc32)o1)Nc1ccc(Cl)cc1 | x | 1.8 | -13.8 | i | 2.1 | 12.7 | 4.9 | -12.5
COCCCNC(=O)c1cn(C)c(=O)c2cc(OC)c(OC)cc12 | -57.4 | -5.2 | -11.5 | x | 2.1 | -1.1 | -1.4 | -4.3
CCC(=O)Nc1cccc(C2=NOC3(C2)C[C@@H](C(N)=O)N(C(=O)c2ccccc2C(=O)c2ccccc2)C3)c1 (some centres not stated) | -2.4 | -5.6 | -2.7 | i | 3.7 | 0.6 | 5.2 | 1.8
COCCn1c(N)c(N(Cc2ccccc2)C(=O)CSCC(=O)Nc2ccc(C)cc2)c(=O)[nH]c1=O | x | x | -11.6 | i | x | -7.6 | 0.4 | -1.0
COc1ccc(C2=NN(C(N)=S)C(c3ccco3)C2)cc1 (configuration not stated) | -13.6 | 15.9 | 0.7 | i | 5.3 | -3.8 | 1.4 | x
CCC(=O)N/N=C(\C)CC(=O)Nc1cc(Cl)ccc1C | 2.5 | 7.3 | -10.1 | i | -4.5 | 4.2 | 4.8 | 0.8
Cc1ccc(OCCCCN2CCc3ccccc3C2)c(C)c1 | -0.6 | 1.1 | 48.9 | i | -11.7 | -5.5 | 0.6 | -12.8
Cc1nnc(SCC(=O)O)o1 | 10.7 | -8.3 | -3.5 | i | 11.4 | 2.1 | 3.8 | x
CC(C)CC(=O)Nc1cccc(C(=O)Nc2ccccc2C(=O)O)c1 | -60.2 | -5.1 | -1.3 | i | 8.4 | -0.6 | 0.6 | -12.5
COc1ccc2[nH]c(=O)c(CN(CC3CCCO3)C(=S)Nc3ccccc3)cc2c1 (configuration not stated) | 11.4 | -0.6 | 6.0 | i | -4.8 | -1.8 | 0.4 | x
